Vaccinia mCherry – vaccinia inhibition (mCherry reporter); Vaccinia virus mCherry reporter infection, fluorescence; about a quarter of the inactives have no number; Potency, µM (highest dose often 36.5 µM), for the others: at the highest dose activity change, negative = inhibition, hits mostly inhibitors; 310,000 tested, 0.63% active; active = well fitted inhibition curve with a large enough effect; inconclusive = small, poorly fitted or top-dose-only effect; inactive = no such curve, though single readings can be large or run the other way; tested in A549 cells; further: nearly all actives have a fitted effect of over 35% in size; inactives centre near -10
VACV Venus inh – inhibitors of vaccinia virus (Venus reporter) | Vaccinia virus Venus reporter expression, fluorescence | 330,000 tested, 0.46% active | Potency, µM (top dose mostly 36.5 µM), for inactives: at the top dose activity change, negative = inhibition, actives largely listed as inhibitors; active means well fitted inhibition curve with a large enough effect; inconclusive means small, poorly fitted or top-dose-only effect; inactive means no such curve, though single readings can be large or run the other way; tested in A549 cells; further: nearly all actives have a fitted effect of over 30% in size; inactives centre near -10
Numbers without * were called inactive; i = inactive; ? = inconclusive; . = no result given; & = joins results of further samples; [ ] = dose if it differs, or a comment. On the % scale 0 is the no-effect control and ±100 the full control effect; potency means the concentration at half of the fitted maximal effect.

SMILES	Vaccinia mCherry	VACV Venus inh
O=C(Cc1ccccc1)Nc1ccccc1C(=O)NCC1CCCO1 (stereo not given)	-13.0%	-7.1%
N#CCCN1CCN(S(=O)(=O)c2ccc(S(=O)(=O)NC3CCCC3)cc2)CC1	-7.6%	-9.1%
O=C(O)c1cc(-c2ccc(Cl)s2)[nH]n1	i	-4.2%
COc1ccccc1N1CCN(CCCCOc2c(OC)cccc2OC)CC1	-28.8%	-9.4%
CC1(c2ccc([N+](=O)[O-])c(CS(=O)(=O)c3ccccc3)c2)OCCO1	2.3%	-1.4%
CCOc1ccc(S(=O)(=O)N(C)CC(=O)NC2CCCC2)cc1	i	-8.8%
COc1cc(O)c(C(CC(=O)N2CCN(c3ccccc3)CC2)c2ccc3c(c2)OCO3)c(OC)c1 (stereo not given)	?	-27.7%
Cc1c(N2C(=O)c3ccccc3C2=O)c(=O)n(-c2ccccc2)n1C	.	5.6%
CCCCCN(C(=O)CCC(=O)OCC(=O)N(CC)c1ccccc1)c1c(N)n(CCCC)c(=O)[nH]c1=O	-23.0%	4.8%
COc1ccc(-c2nc3ccccn3c2NCc2ccc3c(c2)OCO3)cc1	-12.7%	-2.2%
COc1cc(OC)cc(-c2nnc(SCC(=O)Nc3ccc(C(=O)O)cc3)s2)c1	-13.5%	-0.2%
CCOC(=O)N1CCN(c2c(NCCCN3CCCCCC3)c(=O)c2=O)CC1	-23.3%	-2.8%
CC(OC(=O)CCN1C(=O)C2CC=CCC2C1=O)C(=O)Nc1cccc(Cl)c1 (stereo not given)	-10.8%	-14.4%
O=C(N/N=C/c1cc(Br)cc(Br)c1O)c1cccc(S(=O)(=O)N2CCOCC2)c1	-29.7%	-2.9%
COc1ccc(C(O)c2nc(-c3cccc(C(=O)O)c3)cs2)cc1 (stereo not given)	i	2.9%
CN(Cc1ccccc1)N=Nc1nc[nH]c1C(N)=O	6.6%	14.6%
Cc1ccc(C)c(/C(O)=C2/C(=O)C(=O)N(CCN3CCOCC3)C2c2ccco2)c1 (stereo not given)	-14.2%	-10.3%
Nc1c(Cl)ncnc1NCC(O)CO (stereo not given)	i	-16.7%
CCc1ccc(NC(=O)Cn2nc3c4ccccc4n(Cc4ccccc4)cc-3c2=O)cc1	-20.0%	-18.8%
COC(=O)C(Cc1c[nH]c2ccccc12)NC(=O)c1ccc2nc[nH]c2c1 (stereo not given)	i	-7.2%
CSc1ncc2c(n1)-c1ccccc1N(Cc1ccc(Cl)cc1)S2(=O)=O	-7.9%	-7.4%
O=C(N/N=C/c1ccc2c(c1)OCO2)c1ccc2c(c1)OCCO2	?	-28.0%
CN(C)C(=O)c1ccc(NC(=O)c2cccnc2)cc1	-5.3%	-8.6%
CCCCn1c(CNC(=O)C23CC4CC(CC(C4)C2)C3)nnc1SCC(=O)Nc1ccc(C)cc1	-12.5%	-14.5%
COc1ccc(C(=O)OCC(=O)Nc2cc(C)on2)c(OC)c1OC	-0.7%	0.2%
COc1ccc(N(CC(=O)NCCC2=CCCCC2)S(=O)(=O)c2ccccc2F)cc1	-5.2%	-7.2%
N#Cc1c(N)nc2c(c1-c1ccc(F)cc1)c(=O)nc1sccn12	1.6%	1.4%
CCOC(=O)C1=C(COC(=O)c2ccccc2OC(F)F)NC(=O)NC1C (stereo not given)	i	-8.0%
O=C1NC(=S)N(c2ccc(Br)cc2)C(=O)/C1=C/N1CCN(C(=O)c2ccco2)CC1	i	-22.1%
C#CCSc1nnc(-c2c[nH]c3ccccc23)n1C	-0.1%	-25.2%
c1ccc(Nc2nc(NCCN3CCOCC3)nc(Nc3ccccc3)n2)cc1	-21.6%	?
O=C(CN1CCCN(Cc2cccc(Cl)c2)S1(=O)=O)Nc1ccc2c(c1)OCCO2	-17.8%	-4.7%
Cc1ccc(OCC(=O)Nc2cc(Cl)ccc2-n2cncn2)c(C)c1	-0.3%	-18.0%
CN(C)P(=S)(Nc1ccccc1)C(Cl)(Cl)Cl (stereo not given)	-19.2%	-15.7%
Cc1ccc(C)c(NC(=O)Cn2c(=O)n(Cc3ccccc3)c(=O)c3oc4ccccc4c32)c1	-22.7%	-29.2%
CCCOc1ccc(C(C)=O)cc1CC(C(N)=O)C(N)=O	-14.1%	1.3%
Cc1ccc(C(=O)NC(Cc2ccccc2C(F)(F)F)C(=O)O)cc1 (stereo not given)	-1.3%	2.0%
COCCSc1nnc(NC(=O)c2ccc(NC(=O)C(C)C)cc2)s1	-4.6%	-15.0%
Cc1ccc(C)c(NC(=O)CSc2nnc(C3CCCCC3)o2)c1	-2.4%	-3.5%
O=C(N[C@@H]1C/C=C\C[C@@H](CC(=O)N(CCO)Cc2ccccc2)C(=O)N[C@@H](c2ccccc2)COC1=O)OCC1c2ccccc2-c2ccccc21	-11.8%	-16.5%
Cc1ccc(C(=O)CSc2cc(C)nc(SCC(=O)c3ccccc3)n2)cc1	.	-24.6%
S=C(Nc1ccc(Cl)cc1)NC1CC2CCC(C1)N2Cc1ccccc1 (stereo not given)	-29.5%	-18.0%
Cc1nn(CCC#N)c(NC(=O)c2ccccc2)c1P(=O)(Nc1ccc(Br)cc1)N1CCOCC1 (stereo not given)	i	-6.6%
CC(C)C[C@@H](CN)NC(=O)c1nc[nH]c1C(=O)N[C@@H](C)C(=O)CNC[C@H](C)NC(=O)c1nc[nH]c1C(=O)N[C@@H](CC(C)C)C(=O)O	i	3.1%
CCN(CC)S(=O)(=O)c1ccc(C)c(NC(=O)COC(=O)CNC(=O)c2ccc(C(C)(C)C)cc2)c1	-4.6%	2.4%
O=C(NCc1cccs1)C1CCCN1C(=O)Nc1ccccc1[N+](=O)[O-] (stereo not given)	-5.1%	-3.9%
CC(C)NC(=S)NN=C1CCC(c2ccccc2)CC1 (stereo not given)	-3.4%	-0.6%
NC(=O)c1cccc(-c2ccnc3c2CC(C(=O)Nc2cccc(C(F)(F)F)c2)O3)c1 (stereo not given)	-19.9%	-22.8%
C=CCOc1ccc(/C=N/NC(=O)C(C)Sc2ccccn2)cc1OCC (stereo not given)	-0.6%	-12.6%
COC(=O)/C(C#N)=C/c1ccc(OC(=O)c2ccccn2)cc1	-8.3%	1.7%
(next part)
SMILES	Vaccinia mCherry	VACV Venus inh
CC(C)c1ccc(OCc2cc(=O)n3c4c(sc3n2)CCCC4)cc1	-6.9%	-12.0%
Cc1ccc(NC(=O)N2N=C(c3ccc(F)cc3)CC2c2ccc(F)cc2)cc1 (stereo not given)	?	-20.4%
COC(=O)c1ccc(NC(=S)N2CCCC2)cc1	i	-4.2%
Cc1ccc(NC(=O)c2nc[nH]c2C(=O)NCCCCCCNC(=O)c2[nH]cnc2C(=O)Nc2ccc(C)cc2)cc1	-21.8%	?
COc1ccc(S(=O)(=O)N2CCCCCC2)cc1C(=O)NC1(C)CCS(=O)(=O)C1 (stereo not given)	-0.4%	-18.7%
CN1CCN(C(c2ccc(Br)cc2)c2cc(Cl)c3cccnc3c2O)CC1 (stereo not given)	?	?
Cc1cc2oc(=O)cc(CSc3nc(N)cc(N)n3)c2cc1C	.	?
O=C(CCc1ccccc1)Nc1ccc(N2CCOCC2)c(Cl)c1	-17.1%	-7.6%
CCC(CC)C(=O)Nc1nnc2n1CCS2	-0.9%	-1.4%
OC(CN1CCN(c2cccc(Cl)c2)CC1)c1ccc(F)cc1 (stereo not given)	-10.6%	-15.4%
CCOC(=O)c1cnn(CCOC(=O)c2ccccc2F)c1NC(=O)c1ccccc1F	-6.1%	-14.0%
CCCCOc1ccc(C(=O)NCC2(c3ccc(OC)cc3)CCOCC2)cc1	-14.5%	-2.0%
COC(=O)C(CSCc1ccccc1)NC(=O)CCNC(=O)OCc1ccccc1 (stereo not given)	-10.3%	0.0%
Cc1onc(COc2ccccc2O)c1Br	-12.2%	-8.7%
CCOC(=O)c1ccc(NC(=O)CN2C(=O)NC3(CCCCCC3)C2=O)cc1	i	-11.9%
Cc1ccc(C(C)NC(=O)c2ccncc2)cc1C (stereo not given)	i	-20.1%
Cc1c(C(=O)NC(=S)Nc2ccc(NC(=O)c3cccs3)cc2)cccc1[N+](=O)[O-]	.	?
COC(=O)c1ccccc1NC(=O)N1CCN(c2ccc(OC)cc2)CC1	i	3.4%
O=c1cc[nH]c2ccc(Cl)cc12	16.1%	-2.6%
COc1ccc(C(CNC(=O)CSc2ccc(Br)cc2C)N2CCOCC2)cc1 (stereo not given)	-9.3%	-24.4%
Cc1cc(C)cc(NC(=O)CCS(=O)(=O)c2ccc3nc(C)sc3c2)c1	-8.6%	-15.7%
COc1cc(/C=N/NC(=O)/C(=C\c2ccc3c(c2)OCO3)NC(=O)c2ccccc2)ccc1O	-10.2%	-9.0%
Nn1c(Nc2ccc(Cl)cc2)nncc1=O	i	-10.0%
COc1ccc(-c2ccc(OC)c([C@H]3[C@@H]4C=CCC[C@@]4(C)C(=O)N3Cc3ccccc3)c2)cc1OC	5.4%	-4.6%
c1ccc(N=Nc2ccccc2)cc1	-13.5%	-12.2%
CC(=O)Nc1cccc(C(=O)OC2CCOC2=O)c1 (stereo not given)	-18.4%	-2.0%
CSc1ccccc1C(=O)OCC(=O)N1CCCC1=O	-8.4%	-20.0%
COc1ccc(-c2cn[nH]c2C)cc1	i	-14.0%
COc1ccc(NC(=O)C2CCCN2C(=O)Oc2ccccc2)cc1 (stereo not given)	6.4%	4.5%
COc1ccc(C(=O)N2CCN(C3CCN(Cc4ccccc4)CC3)CC2)cc1OC	-6.6%	-1.7%
CCN(CC)S(=O)(=O)c1ccc(Cl)nc1	i	10.7%
OC(CN1CCN(c2ccccn2)CC1)Cn1c2ccc(Cl)cc2c2cc(Cl)ccc21 (stereo not given)	?	?
CN1c2ccc([N+](=O)[O-])cc2CC2(C(=O)NC(=O)NC2=O)C1c1ccccc1 (stereo not given)	-2.2%	-11.4%
O=C(NCC(c1ccco1)N1CCOCC1)c1cccc([N+](=O)[O-])c1 (stereo not given)	-20.4%	-14.8%
O=C(Cc1ccccc1)NC1(O)C(=O)c2ccccc2C1=O	-1.2%[7.34 µM]	-6.2%[7.34 µM]
COc1ccccc1C(=O)NNC(=O)c1ccc(Br)o1	i	-11.3%
CCCCOCCCNC1=NCCCCC1	-7.4%	-2.2%
O=C(NCCC1=CCCCC1)C1CCCN(S(=O)(=O)c2cccc3cccnc23)C1 (stereo not given)	-28.6%	-26.9%
OCCN1CCN(Cc2ccc3c(c2)CN(Cc2cc4ccccc4o2)CCO3)CC1	-12.1%	2.1%
CC(C)(C)NC[C@@H](O)COc1cccc2c1CCCC2=O	i	-13.2%
COc1ccc(CNC(=O)[C@@H]2CC=C[C@@H]3CCN(C4CC4)C(=O)[C@@H]32)cc1	i	0.9%&-6.8%
CCN(CC)S(=O)(=O)c1ccc(C(=O)Nc2ccc(C(F)(F)F)n(C)c2=O)cc1	-9.1%	0.4%
CC1=CC(C)(C)N(C(=O)CSc2nnc(C)s2)c2ccc(C)cc21	-16.5%	-13.7%
c1ccc(Cn2ccnc2SCc2nnc(-c3ccccc3)o2)cc1	-17.8%	-2.7%
O=C(Nc1nc2ccccc2[nH]1)C1CCCC1	i	-18.5%
CCOC(=O)c1c(NC(=O)c2cccs2)sc(C(=O)N2CCOCC2)c1C	i	-5.9%
CC(C)(C)SCCNC(=O)/C=C/c1cccc([N+](=O)[O-])c1	-13.3%	-12.8%
O=C(C(Cl)c1ccccc1)N1CCCC1 (stereo not given)	-6.8%	-11.3%
CCOc1ccc(Cn2c(=O)oc3ccccc32)cc1	-13.5%	-7.4%
O=C(CSc1nnnn1Cc1ccccc1)NCC(=O)c1ccccc1	-11.7%	-7.7%
The results go on.
SMILES	Vaccinia mCherry	VACV Venus inh
COc1cc(O)c(C(CCN2CCN(c3ccccc3)CC2)c2ccc(N(C)C)cc2)c(OC)c1 (stereo not given)	?	-14.8%
CN(Cc1nc2ccc(F)cc2[nH]1)Cc1c(C(=O)N(C)C)nc2ccc(Cl)cn12	i	-8.8%
NC(=S)NNC(=O)[C@@H]1CCCC[C@@H]1C(=O)O	i	-8.9%
COc1ccc(NC(=O)c2cc(-c3cc(OC)c(OC)c(OC)c3)nc3ccccc23)c(OC)c1	i	-14.7%
COc1ccc(N2CCN(C(=O)COC(=O)c3nc(Cl)ccc3Cl)CC2)cc1	i	-14.6%
O=C(CSc1nc2ccccc2c2nc3ccccc3n12)NCc1ccco1	-9.6%	-10.8%
CCCNC(=O)CCc1nnc2ccc(N3CCC(C)CC3)nn12	-14.8%	-7.3%
O=S(=O)(NCc1ccc(Cl)cc1)c1ccc(-c2cnc(C3CC3)o2)cc1	-6.0%	2.1%
O=C([C@H](Cc1ccc(O)cc1)n1cc(CCO)nn1)N1CCNCC1	-22.8%	-4.6%
COc1ccc(Cn2nnnc2C(c2cc3cc(C)ccc3[nH]c2=O)N2CCN(C)CC2)cc1 (stereo not given)	-2.1%	-22.2%
